# Anaer choline gr – blocks anaerobic gram-negative growth on choline | Gram-negative bacterium anaerobic choline minimal medium, absorbance growth; stronger effect = lower value; many inactives read as strong as hits in the columns shown | calls only | 55,000 tested, 0.2% active | AID 1963822;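 active = growth z-score on choline under -2 at 7 or 20 h with little or no fall on glycerol, limits in tiers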;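 also: stock transfer was 300 nL into about 50 µL; the organism is E. coli; final concentration not given here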
# Anaer choline gr early – second read-out of Anaer choline gr, no call of its own (marks repeat the call); z-score; measured here: choline growth z-score, timepoint 1;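 score of optical density at 7 h as mean of two plates; lower means less growth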
# An asterisk follows results filed as active; i = inactive. Not all compounds are listed, so the mix of outcomes need not match the whole.
no.	mol	Anaer choline gr early	Anaer choline gr
1	O=C(COc1ccc(F)cc1)NCC(c1ccc(Br)cc1)c1c[nH]c2ccccc12 (stereo not given)	-0.28	i
2	CN(CCc1noc(C(=O)NCc2ccc(Cl)cc2)n1)C(=O)Nc1ccccc1Cl	-1.38	i
3	Cc1cc(C)cc(-n2ccn3c(CCC(=O)NCCc4ccc(S(N)(=O)=O)cc4)nnc3c2=O)c1	0.17	i
4	COc1cc([C@@H]2c3cc4c(cc3[C@H](O)[C@H]3COC(=O)[C@H]23)OCO4)cc(OC)c1OC	0.51	i
5	CC(C)[C@H](CO)Nc1nc(Nc2cc(N)cc(Cl)c2)c2ncn(C(C)C)c2n1	0.41	i
6	CCc1ccc(C2=C(C)C(=O)N(CC(=O)Nc3c(C)cc(C)cc3C)S2(=O)=O)cc1	1.14	i
7	Cc1ccc2nc(-c3ccc(N4C(=O)CC(N5CCC(C)CC5)C4=O)cc3)sc2c1 (stereo not given)	-0.02	i
8	O=C(NCCC1=CCCCC1)C1CCN(c2nn3c(=O)c4c(nc3s2)CCCC4)CC1	0.34	i
9	CCOC(=O)c1c(C)n(C)c2ccc(OCC(O)Cn3c(C)nc4ccccc43)cc12 (stereo not given)	0.36	i
10	Clc1cc(Cl)c(OCC#CI)cc1Cl	-1.41	i
11	Cc1cc(C(=O)NC2CCCC2)c2c(C)nn(-c3ccccc3)c2n1	1.13	i
12	O=C(NC1CC1)C1CCN(C(=O)c2cccn2-c2cccnc2)CC1	-0.97	i
13	CC(C)Cc1ccc(S(=O)(=O)Nc2cc3c(cc2Oc2ccccc2)n(C)c(=O)c(=O)n3C)cc1	0.49	i
14	O=C(c1ccc(Cl)cc1)N1CCc2cc(CNS(=O)(=O)c3cccc(F)c3)ccc21	1.94	i
15	CCCCC(=O)Nc1cccc(N2CCn3c(nc4cc(Cl)ccc43)C2)c1	0.85	i
16	CCSc1nnc2c(S(=O)(=O)N3CCN(c4ccc(F)cc4)CC3)cccn12	0.2	i
17	COC(=O)c1sccc1NC(=O)CN1CCCN(Cc2ccccc2Cl)S1(=O)=O	-0.04	i
18	O=C(NCCN1CCN(c2ccccc2F)CC1)C1CCN(c2nc3ccccc3[nH]2)CC1	0.51	i
19	Cc1ccc(C)c(NC(=O)Nc2ccccc2OCc2cc(=O)n3c(ncn3C(C)C)n2)c1	-1.75	i
20	O=c1c2cnn(-c3ccc(F)cc3)c2ncn1Cc1nc(-c2ccc(Br)cc2)no1	-0.14	i
21	COCCCNc1c(-c2ccc(O)c(OC)c2)nc2sc3ccccc3n12	-2.82	i
22	COc1ccc(N2CC(NC(=O)C3CCCC3)CC2=O)cc1OC (stereo not given)	0.58	i
23	O=C(Cn1nc2n(CCc3ccccc3)c(=O)c3ccccc3n2c1=O)NCc1ccccc1Cl	0.39	i
24	Cc1cc2c(cc1S(=O)(=O)N1CCCC(C(=O)N3CCCC3)C1)OC(C)C(=O)N2 (stereo not given)	-0.62	i
25	CCOc1ccc(-c2cc(NC(=O)Cn3ncc4c3-c3ccccc3OC4)on2)cc1	0.4	i
26	CCOc1ccc(NC(=O)N(C)Cc2nc3cc(C(=O)N4CCCC4)ccc3n2C)cc1	-0.16	i
27	COc1cc(C2NC(C(=O)O)CS2)ccc1OCc1ccc(Cl)cc1 (stereo not given)	-0.16	i
28	O=C(CCCN1C(=O)CSc2ncccc21)NCc1ccccc1Br	-1.33	i
29	O=C(CSc1nc2ccccc2c(=O)n1CC1COc2ccccc2O1)c1ccccc1 (stereo not given)	1.43	i
30	CCN(CC)S(=O)(=O)N1CCC(C(=O)NCc2ccc(OC)cc2)CC1	0.2	i

# One compound at a time, from the list above.
# Shown for O=C(CCCN1C(=O)CSc2ncccc21)NCc1ccccc1Br = Anaer choline gr early: -1.33; Anaer choline gr: i
# Shown for COC(=O)c1sccc1NC(=O)CN1CCCN(Cc2ccccc2Cl)S1(=O)=O = Anaer choline gr early: -0.04; Anaer choline gr: i

# The listing continues.
no.	mol	Anaer choline gr early	Anaer choline gr
31	CC1Cc2cc(S(=O)(=O)CCC(=O)N3CCN(c4ccccc4)CC3)ccc2N1C(=O)C1CC1 (stereo not given)	0.53	i
32	Cc1ccc(NC(=O)COc2ccccc2-c2nc(-c3ccccc3)no2)cc1	-0.88	i
33	CCCc1cc(C2CCCN2Cc2ccc(OC)cc2OC)no1 (stereo not given)	0.25	i
34	O=C(NCCn1c(C(F)(F)F)nc2cccnc21)Nc1cccc(Br)c1	-0.87	i
35	CC1CCN(c2ccc(-c3cccc(NS(=O)(=O)c4ccc(F)cc4F)c3)nn2)CC1	1.84	i
36	CCn1c(=O)c(=O)[nH]c2cc(-c3noc(-c4ccc(C(C)(C)C)cc4)n3)ccc21	-2.29	i
37	COc1ccc(NS(=O)(=O)c2cc(-c3ccc(=O)[nH]n3)cc(C)c2C)cc1Cl	3.19	i
38	Nc1nonc1C(=O)NCCNC(=O)Nc1cccc(F)c1	0.04	i
39	CCOCCCNC(=O)C1CCN(c2cc(Sc3cc(C)ccc3C)ncn2)CC1	0.7	i
40	CC(C)CNC(=O)N1CCN(Cc2nc3cccnc3n2-c2ccc(F)cc2)CC1	0.71	i
41	O=S1(=O)N=C(SCc2ccc(Br)cc2)Nc2ccccc21	1.25	i
42	CC(C)CCNC(=O)C1CCCN(c2cc(=O)n(C)c(=O)n2C)C1 (stereo not given)	0.81	i
43	Cc1cccc2cc3c(nc12)N(S(=O)(=O)c1ccc(C(C)(C)C)cc1)CC3	-0.93	i
44	c1ccc(CCCn2c(CN3CCOCC3)nc3ccccc32)cc1	-1.28	i
45	CC1CCN(C(=O)c2csc(S(=O)(=O)N3CCOCC3)c2)CC1	0.4	i
46	COc1ccc(OC)c(NC(=O)N2CCC(c3cc4n(n3)CCCNC4=O)CC2)c1	-0.34	i
47	Cc1onc(-c2c(Cl)cccc2Cl)c1C(=O)NC1C(=O)N2C1SC(C)(C)C2C(=O)O (stereo not given)	0.8	i
48	CCC(O)/C=C/C=O (stereo not given)	-0.79	i
49	O=C(Nc1ccc2c(c1)OCCO2)C1CCN(c2cc(-c3ccc(F)cc3)ncn2)CC1	0.23	i
50	O=C(NC1CCCCC1)N1CCCC1c1ccccc1Cl (stereo not given)	-2.78	i
51	Cc1c(C)n(-c2ccccc2)c2nc(C(=O)O)nc(N3CCCC3)c12	-1.36	i
52	O=C(Nc1nc(CC(=O)N2CCCCC2)cs1)c1ccccc1	-0.76	i
53	O=C1C2N=NN(c3ccc(Cl)cc3)C2C(=O)N1c1cccc(F)c1 (stereo not given)	-0.55	i
54	CC1Cc2cc(S(=O)(=O)N3CCN(c4cccc(Cl)c4)CC3)ccc2N1C(=O)C1CC1 (stereo not given)	1.16	i
55	CCOc1ccc(NC(=O)Cn2c3ccccc3n3c(=O)cc(-c4ccccn4)nc23)cc1	-1.09	i
56	COc1ccccc1C(=O)NCC(c1ccccc1Cl)c1c[nH]c2ccccc12 (stereo not given)	1.06	i
57	Cc1cccc(-c2nc(CCN(C)S(=O)(=O)c3ccc(C)c4nsnc34)no2)c1	0.45	i
58	Cc1ccc(N2CC(c3nnc(NC(=O)c4ccccc4)s3)CC2=O)cc1 (stereo not given)	0.02	i
59	CCC1=CC2CN(C1)Cc1c([nH]c3ccccc13)[C@@](C(=O)OC)(c1cc3c(cc1OC)N(C)[C@@H]1[C@@]34CCN3CC=C[C@@](CC)(C(OC(C)=O)[C@]1(O)C(=O)OC)[C@@H]34)C2 (stereo not given in full)	0.74	i
60	COC(=O)c1ccc(C2CC(=O)Nc3c2c(C)nn3-c2nc3ccccc3[nH]2)cc1 (stereo not given)	0.65	i
61	CN(C)S(=O)(=O)Nc1cnc(N2CCC(CCN3CCCCC3)CC2)c(C(=O)O)c1	0.13	i
62	CCN1CCN(c2nnc(-n3cccc3CNc3ccccc3Br)s2)CC1	-0.8	i
63	O=C(c1ccc(SCCN2CCCCC2)nc1)N1CCN(c2ccc(Cl)cc2)CC1	-0.13	i
64	Cc1cccc(-c2cnc(Nc3cccc(C(=O)Nc4ccc5c(c4)OCO5)c3)nc2)c1	0.56	i
65	CCOC(=O)c1c[nH][nH]c1=O	0.07	i
66	O=C(Nc1ccc2nc(SCCOc3ccccc3)sc2c1)c1ccc(F)cc1	1.14	i
67	Cc1ccc(C(=O)N2CCCC(c3cccc(C(=O)NCCc4c[nH]c5ccccc45)c3)C2)cc1 (stereo not given)	-0.27	i
68	Cc1ccc2cc(-c3noc(CCC(=O)Nc4nnc(C(C)C)s4)n3)c(=O)[nH]c2c1	-0.28	i
69	Cc1ccccc1-c1noc(-c2nnn(-c3ccccc3Cl)c2C)n1	-0.52	i
70	COc1cc(C2CC(=O)Nc3c2c(C)nn3-c2nc(C)cc(C)n2)ccc1O (stereo not given)	-0.18	i
71	Cc1ccc(CNC(=O)CCCN2CCSc3ccccc32)cc1	-0.78	i
72	COCCNC(=O)CN1C(=O)COc2ccc(S(=O)(=O)N3CCOCC3)cc21	-0.15	i
73	CC1CCc2c(sc3ncn4c(CCc5ccccc5)nnc4c23)C1 (stereo not given)	0.09	i
74	Cc1cc(C)c2c(=O)cc(C(=O)N(Cc3ccc(C(C)(C)C)cc3)C3CCS(=O)(=O)C3)oc2c1 (stereo not given)	0.64	i
75	Cc1[nH]c(-c2nnc(C3CCC3)o2)c(C)c1S(=O)(=O)N1CCC(C)CC1	0.66	i
76	COc1ccc(CCN2CNc3c(c(=O)n(C)c(=O)n3C)C2)cc1	-0.8	i
77	Cc1ccccc1CN(c1nc2nc(C)c(Cl)c(C)n2n1)S(=O)(=O)c1ccc(Cl)cc1	0.27	i
78	Cc1cc(C)c2c(C)c(C(=O)NCC(c3cccs3)N3CCCC3)oc2c1 (stereo not given)	-0.94	i
79	Cn1nc(C(=O)N2CCCC2)c2c1-c1ccsc1CC2	-1.43	i
80	O=c1oc2c(O)c(O)ccc2c2c1CCC2	-1.72	i
81	COc1ccc(-n2ccc(=O)c(-c3nc(-c4ccc5c(c4)OCO5)no3)n2)cc1	0.04	i
82	COc1cc2nccc(Oc3ccc(NC(=O)Nc4ccc(F)cc4F)c(F)c3)c2cc1OC	0.4	i
83	CC1CCN(c2ccc(-c3noc(CN4CCSCC4)n3)cn2)CC1	0.67	i
84	CC(C)C(NS(=O)(=O)c1ccc2c(c1)CCCC(=O)N2)C(=O)NCCc1ccc(Cl)cc1 (stereo not given)	-0.22	i
85	COC(=O)c1c(-c2ccc(Cl)cc2)noc1NCc1ccc2c(c1)OCO2	2.68	i
86	Cc1nn(-c2ccc3nnc(C)n3n2)c2c1C(c1ccccc1Cl)CC(=O)N2 (stereo not given)	0.39	i
87	COC(=O)c1cc(C(=O)Nc2ccc(OC)c(Cl)c2)c(=O)[nH]c1C	-0.87	i
88	CCCCNC(=O)c1cccn(-c2ccc(NC(=O)c3ccccc3)cc2)c1=O	1.14	i
89	Cc1cc2nc(CSc3ccccc3NC(=O)Nc3ccc(F)c(Cl)c3)cc(=O)n2o1	0.46	i
90	CNc1nc(NC(C)C)nc(-n2cnc(SC)n2)n1	0.48	i

# Remaining list, next part
no.	mol	Anaer choline gr early	Anaer choline gr
91	CCn1c(N2CCCC(C(=O)NCCC3=CCCCC3)C2)cc(=O)n(C)c1=O (stereo not given)	-0.7	i
92	O=C(NCCCN1CCCCC1)c1ccc(Cn2c(SCc3ccccc3)nc3cccnc32)cc1	1.08	i
93	Cc1ccc(S(=O)(=O)CC(=O)Nc2nc(-c3ccc4c(c3)OCO4)cs2)cc1	0.98	i
94	Cc1nc(-n2[nH]c(C)c(CCC(C)C)c2=O)sc1C(=O)Nc1ccc(Cl)cc1	0.19	i
95	COc1ccccc1N1CCN(c2ncnc3c2nnn3C)CC1	-0.16	i
96	Cc1cc(C(=O)N2CCCCC2)c2c(=O)n(CC(=O)N3CCCc4ccccc43)c(=O)n(C)c2n1	0.76	i
97	CC1CCCN(c2nc3ncnc(SCC(=O)NCCC4=CCCCC4)c3s2)C1 (stereo not given)	-0.95	i
98	COC(=O)c1c(NC(=O)N2CCCC2c2ccc(C)cc2)sc2c1CCCC2 (stereo not given)	1.41	i
99	CCc1c(C)nc2ncnn2c1Sc1ccccc1NC(=O)Nc1ccc2c(c1)OCCO2	-0.36	i
100	CCC(C)NC(=O)CCNS(=O)(=O)c1cc(C(=O)OC)n(C)c1 (stereo not given)	-0.47	i
101	Cc1cc(C)n(CC(=O)NC2CCCCC2)c(=O)c1S(=O)(=O)c1ccc(Br)cc1	0.84	i
102	CC(=O)N1CCc2cc(-c3ccc(C(=O)NCCc4c[nH]c5ccccc45)cc3)ccc21	0.34	i
103	CCOc1ccc(-c2csc(Cc3nc(-c4ccc(Cl)cc4)no3)n2)cc1	1.76	i
104	CCc1ccccc1Nc1ccc2cc(S(=O)(=O)N3CCOCC3)ccc2n1	-0.39	i
105	Cc1oc2ncn(CC(=O)N3CCOCC3)c(=O)c2c1C	-0.65	i
106	Clc1ccccc1OCc1nn2c(-c3ccccn3)nnc2s1	1.48	i

# Retrieved by structure from the entries so far:
no.	mol	Anaer choline gr early	Anaer choline gr
100	CCC(C)NC(=O)CCNS(=O)(=O)c1cc(C(=O)OC)n(C)c1 (stereo not given)	-0.47	i
102	CC(=O)N1CCc2cc(-c3ccc(C(=O)NCCc4c[nH]c5ccccc45)cc3)ccc21	0.34	i
104	CCc1ccccc1Nc1ccc2cc(S(=O)(=O)N3CCOCC3)ccc2n1	-0.39	i
93	Cc1ccc(S(=O)(=O)CC(=O)Nc2nc(-c3ccc4c(c3)OCO4)cs2)cc1	0.98	i

# Bioassay records as filed in PubChem.
